High-throughput results from PubChem.
D2 potentiator = positive allosteric modulators of human D2 dopamine receptor. hit rate 0.23% among 360,000. P14416. DiscoveRx D2 beta-arrestin cells, luminescence, 90 min; 100% = 57 uM dopamine signal. potentiation, % (no concentration beside the values); active = potentiation of 50% or more; inconclusive = 30% to 50%; inactive = 30% or less;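 also: compound concentration not given in the record; tested on top of an EC20 dose of dopamine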
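PathHunter beta-arrestin assay in DiscoveRx D2 cells. Compounds were added with an EC20 of dopamine (50 nM final) for 90 min at 37 deg C. Luminescence was read 1 h after detection reagent, with 57 uM dopamine as the EC100 control.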
TRPML1 blocker = inhibitors of human TRPML1 channel | Q9GZU1 | TRPML1-inducible cells, Ca2+ dye fluorescence, FDSS; stronger effect = lower value; inhibition of EC80 agonist-evoked calcium signal | activity change, negative = inhibition, % (test concentration not listed) | hit rate 0.02% among 390,000; in the data active means activity change below about -50%; inconclusive means about -30% to -50%; inactive means above about -30%;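 also: stimulus is agonist 54-4 at its EC80 concentration; % is scaled to controls: 0 for no effect and ±100 for the full control effect; compound concentration not given in the record; the text of the record puts the active cut at -80%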
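Calcium fluorescence in TRPML1-DL cells induced overnight with Tet: a 110 s read after compound pin addition, then a 110 s antagonist read after challenge with 54-4 at 4 uM final (EC80).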
TRPML1 ag = agonists of human TRPML1 channel; Q9GZU1; TRPML1-expressing cells, Ca2+ dye fluorescence, FDSS; host cell line not named in the record; reference of the full effect not given here; activation, % (no concentration beside the values); hit rate 0.12% among 410,000; AID 624414; in the data active = activation above about 50%; inconclusive = about 30% to 50%; inactive = below about 30%; also: 0% is about no effect; the text of the record puts the active cut at 80%
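Tetracycline-induced TRPML1-DL cells are seeded and incubated overnight before loading with a no-wash Ca2+ dye and quencher. Agonist activity is taken from the 110 s fluorescence read following compound pin-transfer on an FDSS, before EC80 54-4 challenge.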
CtBP-E1A inh = blocks the CtBP interaction with E1A | AlphaScreen GST-E1A/His-CtBP binding, 1536-well; stronger effect = lower value; control for the full effect not named in the record | activity change, % (no concentration beside the values) | hit rate 0.49% among 340,000 | AID 651724; in the data active means activity change below about -65%; inconclusive means about -30% to -65%; inactive means above about -30%; also: % is scaled to controls: 0 for no effect and ±100 for the full control effect; compound concentration not given in the record
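Steps: dispense buffer (Tris pH 8.0, NaCl 300 mM, TCEP 1 mM, BSA, Tween 20); add 5X protein mix (GST-E1A, His-CtBP, 125 nM each); pin 23 nL compound; 2 h at 37 °C, dark; add 5X beads (50 ug/mL); 1 h; read.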
TRPV1 PAM = human TRPV1 potentiation; AID 540277; TRPV1-expressing cells, Fluo-8 calcium influx, capsaicin EC20 potentiation; host cell line not named in the record; control for the full effect not named in the record; potentiation, % at 8.33 µM; hit rate 0.02% among 320,000; Q8NER1; active means potentiation above 80%; inconclusive means 30% to 80%; inactive means below 30%; also: 0% is about no effect
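Cells expressing TRPV1 were dye-loaded with Fluo-8 and read kinetically: 10 s baseline, 3 min after compound (agonist portion), then 2 min after EC20 capsaicin (allosteric enhancer portion). Calcium-bound dye fluorescence at 480/520 nm.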
Six1-Eya2 blk = inhibitors of human Six1/Eya2 interaction; AID 651725; activity change, % (concentration not given with the values); AlphaScreen GST-Six1/His-Eya2 binding, biochemical; stronger effect = lower value; control for the full effect not named in the record; hit rate 0.56% among 360,000; in the data active = activity change below about -65%; inconclusive = about -30% to -65%; inactive = above about -30%; also: % is scaled to controls: 0 for no effect and ±100 for the full control effect
Target sequence (O00167 whole entry, looked up): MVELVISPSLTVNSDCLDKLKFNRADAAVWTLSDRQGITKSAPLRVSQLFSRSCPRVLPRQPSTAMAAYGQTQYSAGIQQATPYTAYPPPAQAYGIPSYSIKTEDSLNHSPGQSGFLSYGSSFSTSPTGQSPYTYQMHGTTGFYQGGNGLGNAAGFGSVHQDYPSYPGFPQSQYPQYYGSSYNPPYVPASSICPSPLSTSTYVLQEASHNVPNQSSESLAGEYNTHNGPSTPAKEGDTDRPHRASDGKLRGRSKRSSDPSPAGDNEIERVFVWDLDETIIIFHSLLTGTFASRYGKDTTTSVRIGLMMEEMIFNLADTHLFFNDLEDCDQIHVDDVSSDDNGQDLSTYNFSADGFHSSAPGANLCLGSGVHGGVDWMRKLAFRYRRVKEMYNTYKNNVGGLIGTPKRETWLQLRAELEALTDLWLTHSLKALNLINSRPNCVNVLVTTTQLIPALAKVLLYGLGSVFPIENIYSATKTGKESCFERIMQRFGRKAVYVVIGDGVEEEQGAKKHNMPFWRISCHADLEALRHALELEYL
Target sequence (Q15475 whole entry, looked up): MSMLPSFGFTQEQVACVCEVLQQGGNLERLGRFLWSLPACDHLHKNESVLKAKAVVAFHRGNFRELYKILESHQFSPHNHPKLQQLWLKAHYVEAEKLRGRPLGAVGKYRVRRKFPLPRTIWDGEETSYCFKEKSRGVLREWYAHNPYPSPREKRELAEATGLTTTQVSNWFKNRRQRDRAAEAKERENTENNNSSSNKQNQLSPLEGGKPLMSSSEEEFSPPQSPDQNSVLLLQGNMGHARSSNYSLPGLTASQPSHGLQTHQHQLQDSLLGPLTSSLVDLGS
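GST-Six1 + His-Eya2 (5X stock: 250/500 nM); Tris pH 8.0, 300 mM NaCl, 0.05% BSA, 0.02% Tween 20; GSH donor/Ni acceptor beads; 1 h 37 °C dark; AlphaScreen readout.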
* hit, by the source's call; ? = inconclusive; . = not tested or not shown; & = joins results of further samples.

Field names – A = D2 potentiator; B = TRPML1 blocker; C = TRPML1 ag; D = CtBP-E1A inh; E = TRPV1 PAM; F = Six1-Eya2 blk
O=C(OCc1nc2scc(-c3ccccc3)c2c(=O)[nH]1)c1cc(Cl)ccc1[N+](=O)[O-]
  A = -4 | B = -7 | C = 3.7 | D = 3 | E = -1 | F = -20
COc1ccc(C(=O)C2CCCN(C(=O)c3cc(C)nc(C)n3)C2)cc1OC (configuration not stated)
  A = -5 | B = 13 | C = 0.3 | D = 10 | E = 25 | F = 0
COC(=O)C[C@H]1c2cc(C(F)(F)F)ccc2S(=O)(=O)N1Cc1ccc(OC)cc1
  A = -7 | B = -5 | C = -0.5&0.0 | D = . | E = . | F = 0
Cc1c(N2C(=O)C(=O)/C(=C(/O)c3ccc(Br)cc3)C2c2cccnc2)c(=O)n(-c2ccccc2)n1C (configuration not stated)
  A = -5 | B = -13 | C = -0.5 | D = 2 | E = -15 | F = -11
COc1ccc(-c2[nH]ncc2C=O)cc1
  A = -20 | B = -4 | C = -0.8 | D = 3 | E = 13 | F = 33
Cc1cc(Nc2ccccc2)n(-c2ccccc2)n1
  A = -16 | B = -9 | C = 1.3 | D = -2 | E = -15 | F = -10
CCn1cc(Cl)c(C(=O)Nc2cccc(CN3CCOCC3)c2)n1
  A = -9 | B = -4 | C = 0.6 | D = 4 | E = -18 | F = 0
O=C(NCCO)c1ccc(-c2nnc(Nc3ccc(O)cc3)c3ccccc23)cc1
  A = -5 | B = 22 | C = 0.0 | D = . | E = 4 | F = -8
CC(C)CN1CC(C)C(=O)N(c2ccccc2)C1=O (configuration not stated)
  A = -2 | B = -1 | C = 0.5 | D = -1 | E = . | F = 8
CC1(C)CC(=O)C2=C(C1)N(c1ccccc1)C(N)=C(C#N)C2c1cccnc1 (configuration not stated)
  A = 3 | B = -5 | C = -1.2 | D = 10 | E = -2 | F = 9
O=c1nc(N(c2ccccc2)c2ccccc2)[nH]c(=O)[nH]1
  A = 10 | B = -13 | C = 0.3 | D = 3 | E = 3 | F = 1
CC(C)(C)OC(=O)NCCCCCNC(=O)c1[nH]cnc1C(=O)Nc1cc(Br)ccc1F
  A = 2 | B = 5 | C = 0.3 | D = 4 | E = . | F = -1
C/C(=N\NC(N)=S)c1ccncc1
  A = -24 | B = 16 | C = 0.0 | D = . | E = 4 | F = 5
CCCNC(=O)c1ccccc1NS(=O)(=O)c1ccc2c(c1)OCCO2
  A = 3 | B = 17 | C = -0.3 | D = 3 | E = 5 | F = -1
CCN(CC)S(=O)(=O)c1cccc(NC(=O)c2ccc(SC)cc2OC)c1
  A = -3 | B = 1 | C = 0.6 | D = 7 | E = 18 | F = ?

Part of the list above in order of length of the SMILES, high to low.
Field names – A = D2 potentiator; B = TRPML1 blocker; C = TRPML1 ag; D = CtBP-E1A inh; E = TRPV1 PAM; F = Six1-Eya2 blk
Cc1c(N2C(=O)C(=O)/C(=C(/O)c3ccc(Br)cc3)C2c2cccnc2)c(=O)n(-c2ccccc2)n1C (configuration not stated)
  A = -5 | B = -13 | C = -0.5 | D = 2 | E = -15 | F = -11
O=C(OCc1nc2scc(-c3ccccc3)c2c(=O)[nH]1)c1cc(Cl)ccc1[N+](=O)[O-]
  A = -4 | B = -7 | C = 3.7 | D = 3 | E = -1 | F = -20
CCCNC(=O)c1ccccc1NS(=O)(=O)c1ccc2c(c1)OCCO2
  A = 3 | B = 17 | C = -0.3 | D = 3 | E = 5 | F = -1

Remaining list, next part
Field names – A = D2 potentiator; B = TRPML1 blocker; C = TRPML1 ag; D = CtBP-E1A inh; E = TRPV1 PAM; F = Six1-Eya2 blk
Cn1c(=O)c2c(nc(NCc3ccccc3)n2CC(=O)NCc2ccccc2)n(C)c1=O
  A = -9 | B = -8 | C = -1.4 | D = 10 | E = 1 | F = 10
Oc1ccccc1-c1nnc(COc2ccc(Cl)cc2Cl)o1
  A = -4 | B = -7 | C = 0.1 | D = 0 | E = 8 | F = 2
CC1Cc2cc(/C=C3/SC(=S)N(C)C3=O)ccc2O1 (configuration not stated)
  A = 0 | B = -8 | C = 0.9 | D = 0 | E = 5 | F = -8
O=C(CN(Cc1cccs1)C(=O)CNS(=O)(=O)c1ccccc1)NC1CCCC1
  A = -5 | B = -3 | C = 0.2 | D = 4 | E = -4 | F = -1
CCCc1cc(=O)[nH]c(-n2[nH]c3c(c2=O)CCCC3)n1
  A = -45 | B = -4 | C = 11 | D = -22 | E = -3 | F = ?
O=C(C1CCCN(S(=O)(=O)c2ccc(F)cc2)C1)N1CCOCC1 (configuration not stated)
  A = -3 | B = 13 | C = 0.4 | D = -7 | E = . | F = -8
CC(C)c1cc(C(=O)N/N=C/c2ccoc2)c(O)c(C(C)C)c1
  A = -19 | B = -3 | C = 0.2 | D = 2 | E = -7 | F = -5
Cn1nccc1C(=O)N1CCN(c2ccccc2F)CC1
  A = -7 | B = -6 | C = -0.7 | D = 4 | E = -6 | F = -1
CC(C)CC(NC(=O)c1ccccc1)C(=O)OCC(=O)Nc1ccc(Br)cn1 (configuration not stated)
  A = -7 | B = 3 | C = 4.9 | D = 2 | E = 3 | F = 0
CCCN(CC(=O)Nc1cc(Cl)ccc1Cl)C(=O)c1ccc2n[nH]nc2c1
  A = 0 | B = 3 | C = 2.5 | D = -7 | E = -7 | F = 1
Cc1ccc(-c2cc(-c3ccccc3)no2)cc1
  A = -12 | B = 37 | C = 0.4 | D = 11 | E = -18 | F = 18
COc1ccc(Cn2cc(CN3CC(N4CCN(C5CCN(C)CC5)CC4)CS3(=O)=O)nn2)cc1 (configuration not stated)
  A = . | B = . | C = -0.4 | D = 3 | E = . | F = -3
CN1C=CC=C/C1=C1\SC(=S)N(Cc2ccccc2)C1=O
  A = -7 | B = -8 | C = 0.5 | D = ? | E = -4 | F = -25
NC(=O)C1CCN(C2=C(NS(=O)(=O)c3ccc(Cl)cc3)C(=O)c3ccccc3C2=O)CC1
  A = -12 | B = -19 | C = -0.2 | D = . | E = -15 | F = -25
O=C(N/N=C/c1ccc(C(F)(F)F)cc1)c1ccncc1
  A = -5 | B = -3 | C = -0.1 | D = 8 | E = -11 | F = 4

Record cards, from the list above:
`O=c1nc(N(c2ccccc2)c2ccccc2)[nH]c(=O)[nH]1` is entered as D2 potentiator: 10; TRPML1 blocker: -13; TRPML1 ag: 0.3; CtBP-E1A inh: 3; TRPV1 PAM: 3; Six1-Eya2 blk: 1
`COC(=O)C[C@H]1c2cc(C(F)(F)F)ccc2S(=O)(=O)N1Cc1ccc(OC)cc1` is entered as D2 potentiator: -7; TRPML1 blocker: -5; TRPML1 ag: -0.5&0.0; CtBP-E1A inh: .; TRPV1 PAM: .; Six1-Eya2 blk: 0

More records follow:
Field names – A = D2 potentiator; B = TRPML1 blocker; C = TRPML1 ag; D = CtBP-E1A inh; E = TRPV1 PAM; F = Six1-Eya2 blk
CC(=O)Nc1ccc(Nc2nc(C)c([N+](=O)[O-])c(N(C)c3ccccc3)n2)cc1
  A = -7 | B = 6 | C = -0.6 | D = -5 | E = -4 | F = -17
O=C(OCc1ccccc1)c1ccc(NCc2cc(O)ccc2O)cc1
  A = ? | B = 8 | C = 0.3 | D = -6 | E = . | F = -19
COc1ccc(CNC(=O)O[C@H]2CN(C(=O)OC(C)C)N(C(=O)OC(C)C)[C@@H]3CN(S(=O)(=O)c4ccc(C)cc4)C[C@]23O)cc1OC
  A = 5 | B = 0 | C = -0.5 | D = 2 | E = . | F = -2
Cc1ccc(SCC(=O)OCC(=O)NCc2ccco2)cc1
  A = -19 | B = -6 | C = 2.8 | D = -14 | E = -20 | F = 0
CC(=O)/C(C(=N)N1CCN(C(c2ccccc2)c2ccccc2)CC1)=C(\C)O
  A = -25 | B = 2 | C = 3.2 | D = 4 | E = 7 | F = 1
CCc1cc(C(c2cccc(OC)c2)N2CCOCC2)c(NC(=O)c2ccccc2)s1 (configuration not stated)
  A = -21 | B = 9 | C = 0.5 | D = 5 | E = 20 | F = -2
CC(C)CC(NC(=O)C1CCC(C)CC1)C(=O)N1CCN(c2ccccn2)CC1 (configuration not stated)
  A = -9 | B = 2 | C = 1.5 | D = 3 | E = . | F = -1
COc1ccc(/C=N/NC(=O)Nc2cccc3nsnc23)cc1
  A = -4 | B = -2 | C = ? | D = 5 | E = -4 | F = -18
Cc1cc(C(=O)COC(=O)C2COc3ccccc3O2)c(C)n1CC1CCCO1 (configuration not stated)
  A = -7 | B = -2 | C = 0.1 | D = -6 | E = -11 | F = -7
CN(C)S(=O)(=O)c1ccc(NC(=O)CSc2n[nH]c(=O)n2C2CC2)cc1
  A = -4 | B = -6 | C = 0.6 | D = . | E = -7 | F = 8
CN(C(=O)COc1ccccc1C(=O)NCCOc1ccccc1)c1ccccc1
  A = ? | B = 9 | C = 1.2 | D = 9 | E = -15 | F = 0
O=C(C#Cc1ccccc1)c1ccco1
  A = -47 | B = -24 | C = 6.3 | D = 5 | E = -2 | F = 2
Cc1ccc(Cl)cc1N1CCN(C(=O)C2CCN(S(=O)(=O)c3c(C)nn(C)c3C)CC2)CC1
  A = 2 | B = 19 | C = 0.3 | D = 5 | E = 0 | F = -1
Cc1ccc(NC(=O)CCC(=O)NNC(=O)Nc2cccc(Cl)c2)c(C)c1
  A = -18 | B = -11 | C = 0.1 | D = -4 | E = 13 | F = 5
Cc1cc(C)n2nc(C(=O)N3CCCC(Nc4ccc(C(C)C)cc4)C3)cc2n1 (configuration not stated)
  A = -2 | B = -3 | C = -0.9 | D = 1 | E = -2 | F = -2
COCc1c(C(=O)N2CCN(c3ccc(C(F)(F)F)cn3)CC2)oc2ccccc12
  A = -31 | B = 1 | C = 1.6 | D = 7 | E = -4 | F = 11
Cc1ccc(S(=O)(=O)NCCNC(=O)N2CCOCC2)cc1
  A = -5 | B = 1 | C = -0.5 | D = 2 | E = 3 | F = 3
COC(=O)c1cn(NC(=O)Cc2ccccc2OC)c(=O)c2ccccc12
  A = -11 | B = -1 | C = 0.5 | D = -6 | E = 4 | F = 2
Cc1cccc(OCCCCCN2CCOCC2)c1
  A = -13 | B = -5 | C = -0.4 | D = -3 | E = -33 | F = 0
CCc1noc(C)c1C(=O)N1CC(C)SC1=Nc1ccc(Cl)cc1 (configuration not stated)
  A = -5 | B = 71 | C = 2.4 | D = -4 | E = -10 | F = 11
CC(C)(C)OC(=O)NCCCC[C@H](NC(=O)c1nc[nH]c1C(=O)NCc1ccccc1)C(=O)OC(C)(C)C
  A = 1 | B = -3 | C = 2.6 | D = 1 | E = 7 | F = -5
CCOC(=O)N1CCC(NC(=O)c2cc3c(-c4ccccc4F)nn(C)c3s2)CC1
  A = -12 | B = -8 | C = 1.7 | D = -4 | E = 0 | F = -6
N#Cc1nc(Cc2cccc3ccccc23)oc1NCC1CCCO1 (configuration not stated)
  A = -12 | B = -8 | C = -0.4 | D = -4 | E = . | F = -8
O=C(NNc1ccccc1C(F)(F)F)c1sccc1Br
  A = -16 | B = 18 | C = -1.2 | D = . | E = . | F = -4
CCc1cccc(CC)c1NC(=O)C1SC(=Nc2ccccc2C)C(c2nc3ccccc3s2)=C1N (configuration not stated)
  A = 0 | B = -2 | C = 1.4 | D = -9 | E = 8 | F = -18
